# ALR H2O2 inh – inhibitors of human sulfhydryl oxidase ALR; P55789; purified ALR, DTT oxidation, H2O2 HRP-luminol luminescence; inhibition, % (concentration not given with the values); 290,000 compounds, 3.8% hits; AID 485317;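 active = mean and each replicate at 75% or more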;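 note: stock transfer was 7.5 nL into about 7.5 µL; 0% = neutral wells and 100% = wells with inactivated enzyme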
# B2AR ag – agonists of human beta-2 adrenergic receptor inducing internalization | P07550 | Am2.2-beta2AR cells, FAP receptor internalization, flow cytometry; reference of the scale not given here | 340,000 compounds, 0.43% hits | AID 504454 | response, % (no concentration beside the values);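 active = response above a set limit, near 3 SD of response in nonfluorescent compounds, cut at about 42% in these data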;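 note: stock transfer was 100 nL into about 11 µL; a reference agonist was the positive control; negative values mostly stem from fluorescent compounds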
# Target sequence (P07550 whole entry, looked up): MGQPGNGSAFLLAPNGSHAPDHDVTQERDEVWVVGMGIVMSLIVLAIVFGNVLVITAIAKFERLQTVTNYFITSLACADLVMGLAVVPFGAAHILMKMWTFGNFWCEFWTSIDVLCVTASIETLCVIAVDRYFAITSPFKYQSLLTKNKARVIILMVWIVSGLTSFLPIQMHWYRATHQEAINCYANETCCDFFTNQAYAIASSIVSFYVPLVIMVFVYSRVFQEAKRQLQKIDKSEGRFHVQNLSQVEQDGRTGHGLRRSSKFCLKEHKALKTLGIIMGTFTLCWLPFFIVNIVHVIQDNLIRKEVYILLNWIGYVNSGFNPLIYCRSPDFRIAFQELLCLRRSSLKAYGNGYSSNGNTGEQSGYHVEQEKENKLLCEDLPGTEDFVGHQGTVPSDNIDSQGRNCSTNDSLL
# HNF4A DNA FP – change in binding of human HNF4 alpha to DNA; P41235; HNF4a-FITC DNA binding, fluorescence polarization, 1 h; activity change, % at 10 µM; 360,000 compounds, 0.3% hits; AID 1224865; in the data active = activity change above about 30%, passing the limit was not always enough;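 note: controls were the assay level and a saturating level of protein; the project sought stronger binding though the title names inhibitors; some compounds called inactive have numbers as strong as hits; positive values seem to mean higher polarization but the record does not say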
# Target sequence (P41235 whole entry, looked up): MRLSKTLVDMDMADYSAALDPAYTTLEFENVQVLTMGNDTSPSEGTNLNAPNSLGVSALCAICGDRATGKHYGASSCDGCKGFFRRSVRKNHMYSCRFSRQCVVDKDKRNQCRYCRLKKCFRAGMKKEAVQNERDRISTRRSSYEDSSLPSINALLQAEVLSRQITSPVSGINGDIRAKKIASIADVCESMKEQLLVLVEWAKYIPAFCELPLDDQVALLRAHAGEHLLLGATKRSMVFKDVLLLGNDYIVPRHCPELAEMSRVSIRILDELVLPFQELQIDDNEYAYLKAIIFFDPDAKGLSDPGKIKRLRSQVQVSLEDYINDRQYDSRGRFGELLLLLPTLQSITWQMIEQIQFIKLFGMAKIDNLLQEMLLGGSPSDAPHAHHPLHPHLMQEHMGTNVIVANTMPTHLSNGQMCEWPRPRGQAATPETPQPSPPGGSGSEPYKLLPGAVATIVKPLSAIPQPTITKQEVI
# E coli growth – inhibitors of Escherichia coli growth; OD600, 23 h; active compounds read low; 330,000 compounds, 0.21% hits; AID 1053175; OD600 absorbance (test concentration not listed);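 active = OD600 absorbance below the run mean of sample wells minus 3.6 SD, in any replicate, cut at about 0.56 in these data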;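 note: stock transfer was 300 nL into about 60 µL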
# Ecoli rRNA inh – inhibitors of bacterial rRNA selective over humanized ribosomes; 350,000 compounds, 1.6% hits; GFP signal change (wild-type ribosome), % (test concentration not listed); E. coli WT GFP vs humanized-ribosome RFP mutants, fluorescence, 24 h; active compounds read low; DMSO median 0, no signal -100;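 active = significant combined selectivity score with lowered wild-type GFP, culture density cut under 30%, mutant RFP and density less affected; inactive = any of these conditions unmet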; note: one replicate is shown; some compounds called inactive have numbers as strong as hits
# UCH37 DUB inh – inhibitors of human deubiquitinating enzyme UCH37; Q9Y5K5; purified proteasome/UCH37, Ub-AMC cleavage fluorescence; 330,000 compounds, 0.33% hits; inhibition, % (no concentration beside the values);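 active = mean of two replicates above 20%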;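 note: 0% = compound-free wells with enzyme and 100% = wells lacking proteasome; stock transfer was 100 nL into about 20 µL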
#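 system = Proteasome-associated human UCH37 deubiquitinase | amount = 0.15 nM proteasome as dispensed | medium = pH 7.4 Tris-HCl (50 mM) with ovalbumin, ATP-MgCl2, DTT | incubation = 30 min preincubation with enzyme, 25 min cleavage at room temperature | detection = AMC fluorescence 355/460 nm | read-out basis = percent inhibition | controls = no-proteasome and no-compound wells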
# FGF22 binding – shifts melting point of recombinant human FGF22; recombinant FGF22 thermal shift, SYPRO orange fluorescence; percent of sucrose octasulfate shift, DMSO zero; calls only at 9.99 µM; 340,000 compounds, 1.5% hits; AID 651658;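 active = melting point raised past a set limit in the mean and every replicate; three in four hits are not shown here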
# Target sequence (Q9HCT0 whole entry, looked up): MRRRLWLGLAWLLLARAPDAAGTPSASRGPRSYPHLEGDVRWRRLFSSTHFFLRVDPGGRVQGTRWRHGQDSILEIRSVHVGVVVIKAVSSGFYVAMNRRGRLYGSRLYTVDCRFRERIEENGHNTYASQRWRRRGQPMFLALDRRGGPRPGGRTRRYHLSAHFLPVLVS
# Ecoli rRNA inh OD600 – also measured in Ecoli rRNA inh; calls as there; OD600 change, %; measured here: OD600 growth;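 optical density of the mix in the first replicate; 0 = DMSO median and -100 = no signal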
# Ecoli rRNA inh RFP – second read-out of Ecoli rRNA inh, no call of its own (marks repeat the call); RFP signal change, %; measured here: RFP humanized mutant strains;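 first replicate; 0 = DMSO median and -100 = no signal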
# An asterisk follows results filed as active; i = inactive; · = no result given; & = joins results of further samples.
SMILES,ALR H2O2 inh,B2AR ag,HNF4A DNA FP,E coli growth,Ecoli rRNA inh,Ecoli rRNA inh OD600,Ecoli rRNA inh RFP,UCH37 DUB inh,FGF22 binding
CN(CC(=O)NCCc1ccc(S(N)(=O)=O)cc1)Cc1c(F)cccc1Cl,-5.1,-1.4,-0.4,0.714,1.9,-1.9,4.3,1.2,i
O=C(/C=C/c1ccco1)NC(=S)Nc1ccccc1N1CCOCC1,1.1,-6.9,2.4,0.729,·,·,·,5.5,·
CCN(c1ccccc1)S(=O)(=O)c1ccc(Cl)c(NC(=O)CSc2nc(N)cc(=O)[nH]2)c1,·,·,0.8,·,-0.7,-2.6,0.8,·,i
CC(C)(C)c1ccc(C(=O)NCC2CCCN2S(=O)(=O)c2ccccc2)cc1 (stereo unspecified),-2.6,18.6,-2.0,0.718,-11.2,-39.0,0.7,2.9,i
O=C1CCCN2N=C(SCC(=O)N3CCCCC3)SC2=N1,-6.1,-8.2,5.3,0.651,8.9,5.3,0.6,4.9,i
COc1ccc(-c2noc(CCCC(=O)Nc3ccc(C(N)=O)cc3)n2)cc1,-3.1,-0.3,-4.3,0.784,·,·,·,-0.1,·
Cc1csc2c(N3CCN(S(=O)(=O)c4ccc(Cl)cc4)CC3)ncnc12,-5.5,-7.3,1.9,0.633,-1.1,-9.3,-3.3,1.8,i
O=C1C=C(c2ccc3ncccc3c2)C[C@@H](c2ccc(F)cc2)C1,-36.4,0.3,1.5,·,·,·,·,0.9,·
Cc1ccccc1NC(=O)CC(=O)c1ccccc1,-5.8,-5.5,0.2,0.676,9.5,13.3,1.9,0.7,i
Cc1ccc2[nH]c(C(=O)O)c(NC(=O)CN3CCN(c4cccc(C)c4C)CC3)c2c1,94.0*,12.8,-3.9,0.791,·,·,·,2.4,·
Cc1ccc(Nc2ccc(C(=O)O)cc2N)cc1,99.2*,·,·,0.673,·,·,·,-7.4,·
CCn1cnc2c1c(=O)n(CC(=O)Nc1cc(C)on1)c(=O)n2Cc1ccccc1,-5.9,-14.0,-0.4,0.699,·,·,·,4.1,·
O=C(COC(=O)C1CC2CCCC(C1)C2=O)NNC(=O)c1ccccc1Br (stereo unspecified),1.1,-7.3,-1.4,0.601,8.8,8.9,-2.6,-1.2,i
COc1ccc([C@H]2C=C(C(=O)O)O[C@@H](OCc3ccc(CO)cc3)C2)cc1,0.5,2.5,1.6,·,3.3,7.6,-1.9,2.6,i
CCc1cc2c(SCc3nc4sc(C(C)=O)c(C)c4c(=O)[nH]3)ncnc2s1,20.9,-5.5,34.6,0.698,7.9,6.9,1.2,4.2,i
O=C(c1cc2n(n1)C(C(F)(F)F)CC(c1ccc(Cl)cc1)N2)N1CCCC1 (stereo unspecified),4.6,-3.1,-0.2,0.665,·,·,·,3.7,·
COc1cc(/C=C/C(=O)OCC(=O)Nc2ccc(Cl)cn2)ccc1O,12.1,8.0,-6.8,0.698,8.8,2.4,5.9,-3.9,i
CC(NC(=O)c1ccco1)C(=O)Nc1nc(-c2ccccn2)cs1 (stereo unspecified),-5.3,-8.8,0.7,0.639,·,·,·,3.6,·
CC(=O)Nc1ccc(NS(C)(=O)=O)cc1,·,0.7,-0.3,0.642,·,·,·,2.3,·
CC(C)c1ccc(-c2nn(-c3ccccc3)cc2C(=O)NCC2CCCO2)cc1 (stereo unspecified),-1.9,-7.3,0.1,0.621,8.3,5.7,0.9,2.9,i

# Ordered by value in Ecoli rRNA inh RFP (lowest first): some entries from above.
SMILES,ALR H2O2 inh,B2AR ag,HNF4A DNA FP,E coli growth,Ecoli rRNA inh,Ecoli rRNA inh OD600,Ecoli rRNA inh RFP,UCH37 DUB inh,FGF22 binding
O=C1CCCN2N=C(SCC(=O)N3CCCCC3)SC2=N1,-6.1,-8.2,5.3,0.651,8.9,5.3,0.6,4.9,i
CCN(c1ccccc1)S(=O)(=O)c1ccc(Cl)c(NC(=O)CSc2nc(N)cc(=O)[nH]2)c1,·,·,0.8,·,-0.7,-2.6,0.8,·,i
Cc1ccccc1NC(=O)CC(=O)c1ccccc1,-5.8,-5.5,0.2,0.676,9.5,13.3,1.9,0.7,i

# Remaining list, next part.
SMILES,ALR H2O2 inh,B2AR ag,HNF4A DNA FP,E coli growth,Ecoli rRNA inh,Ecoli rRNA inh OD600,Ecoli rRNA inh RFP,UCH37 DUB inh,FGF22 binding
Cc1cccc(NC(=O)CSCC(=O)N2CCN(C(=O)c3ccco3)CC2)c1,·,0.8,2.0,0.66,8.8,6.8,2.1,-2.4,i
C=CCSc1nc2sc3c(c2c(=O)[nH]1)CC(C)(C)OC3,·,2.9,0.4,·,-2.9,-1.1,-1.6,·,i
CCSc1nnc(CNC(=O)C23CC4CC(CC(C4)C2)C3)n1Cc1ccccc1,-1.0,-1.5,0.7,0.697,·,·,·,0.2,i
O=C(NNC(=O)c1ccc(Cl)nc1)c1ccncc1,·,3.4,-2.2,0.686,11.8,14.7,1.5,2.0,i
CCCCC1=CC2=C(c3ccco3)C(=O)C(C)(OC(=O)c3ccc(OC)cc3)C(=O)C2=CN1c1ccccc1 (stereo unspecified),·,25.9,2.0,·,·,·,·,0.7,·
O=C(c1ccc(Cl)cc1Cl)N1CCc2ccccc21,1.0,6.2,-3.4,·,-27.0,-25.2,-7.1,·,i
O=C(Cc1cccs1)N(Cc1cccs1)C1(C(=O)NC2CCCCC2)CCCCC1,-7.2,4.6,1.2,0.746,·,·,·,3.7,·
COc1ccc(NC(=O)C2C3CCC(O3)C2C(=O)O)cc1OC (stereo unspecified),20.4,0.6,2.3,0.69,8.8,5.4,2.7,3.8,i
CCOC(=O)C(C(=O)OCC)[C@@H]1CS(=O)(=O)C[C@H]1C(C(=O)OCC)C(=O)OCC,-6.0,3.7,-6.4,0.766,·,·,·,2.3,·
Cc1cnc(C(=O)NCCc2ccc(Cl)cc2)cn1,-14.0,11.3,1.2,0.671,5.0,4.6,0.1,2.0,i
O=C(NCc1ccccc1)NS(=O)(=O)c1ccccc1Cl,-15.7,-9.4,2.7,0.722,0.2,5.0,-3.9,0.8,·
CC(=O)Nc1ccc(NC(=O)CSc2nnc(C)c(=O)[nH]2)cc1,98.3*,-0.5,0.5,0.681,4.8,-0.8,-2.0,2.1,i
Cc1cc(C(=O)N2CCN(c3ccccn3)CC2)c(C)o1,9.8,-6.1,-2.8,0.687,5.7,-14.1,3.2,-4.3,i
O=C(CCC(=O)OCc1ccc(C(=O)Oc2ccc(Cl)cc2)cc1)Nc1ccccc1,-4.4,10.5,-1.1,0.694,·,·,·,-1.6,·
COc1ccccc1C1C([N+](=O)[O-])=CC([N+](=O)[O-])=CN1C (stereo unspecified),-9.7,1.1,-1.2,0.703,7.4,-11.8,-1.3,12.7,i
COc1cc(CN2CCN(C(=O)CC(C)C)CC2)c([N+](=O)[O-])cc1OC,-13.8,1.2,2.4,0.677,2.2,4.1,0.9,6.7,i
CC[C@]1(C(=O)OC)[C@H]2C(=O)N(C)C(=O)[C@H]2[C@H]2CN=C(SCc3ccc(C(=O)OC)cc3)N21,·,0.6,-1.6,0.689,-3.8,6.0,-0.5,2.3,i
CC(=O)N1CC=CC1(C)C(=O)O (stereo unspecified),·,-9.9,-3.5,0.677,4.9,5.6,-2.3,3.5,i
O=C(CNC(=O)c1ccc(Br)cc1)NC1=NCCS1,·,0.4,2.5,0.647,-5.2,-17.0,2.0,1.4,i
CCCCSc1cc(C)nc2ncnn12,-7.4,-5.0,0.0,0.681,·,·,·,0.8,·
COCC(=O)N1CCC(Oc2ccc(C(=O)NCCCC3CCCC3)cc2)CC1,-19.5,-9.4,3.5,0.683,-11.1,-13.2,-0.4,2.9,i
Cc1nn(C(C)(C)C)c(OC(=O)c2cccs2)c1S(=O)(=O)c1ccccc1,-7.9,5.1,1.4,0.694,·,·,·,5.1,·
Cc1ccc2c(c1)C(C)CC(C)(C)N2C(=O)CN1CCN(C)CC1 (stereo unspecified),-5.6,-3.8,0.4,0.702,10.2,0.4,-0.5,0.8,i
O=C(c1cccc(Cl)c1Cl)N1CCN(c2ccccn2)CC1,2.4,3.0,0.0,0.667,·,·,·,1.5,·
Cc1cc(NC(=O)CSc2ccc(-c3ccc(Br)cc3)nn2)no1,-6.3,-8.1,-0.3,0.693,8.3,11.0,1.3,4.3,i
CCOC(=O)c1[nH]c(=O)[nH]c1CN(Cc1ccco1)Cc1[nH]c(=O)[nH]c1C(=O)OCC,63.1,-2.0,0.8,0.653,2.1,4.1,-8.3,-0.2,i
CC1(C)O[C@@H]2[C@H](O1)[C@@H](CO)O[C@H]2n1cc(Br)c(=O)[nH]c1=O,-1.0,2.7,-2.2,·,4.2,-3.3,3.7,-0.1,i
COc1ccc(CN2[C@@H](CC(C)=O)c3cc(C(F)(F)F)ccc3S2(=O)=O)cc1,-0.7,-4.0,0.7,·,·,·,·,-0.4,·
COc1cc(/C=C/C(=O)OCC(=O)Nc2ccc3c(c2)OCO3)ccc1O,·,3.9,2.0,0.675,-11.8,-7.2,1.5,-5.4,i
COc1ccc(OC)c2[nH]c(=O)c(CCNC(=O)C(=O)c3c(C)[nH]c4ccccc34)cc12,-37.7,-3.6,-1.9,0.698,-13.1,-15.2,-2.7,2.7,i
O=C(Nc1cccc(S(=O)(=O)N2CCCCC2)c1)C1CCC1,1.7,2.2,3.1,0.689,-0.5,-8.3,-1.8,2.2,i
O=C(COc1ccccc1)Nc1cc(C(F)(F)F)ccc1N1CCCC1,0.6,4.0,-4.2,0.695,·,·,·,6.1,·
COc1ccc(OC)c(N(CC(=O)N2CCC(C)CC2)S(=O)(=O)c2ccccc2)c1,·,5.3,-3.2,0.734,·,·,·,0.2,·
O=C(C[n+]1ccc(C(=O)N/N=C/c2ccc(Cl)cc2Cl)cc1)c1ccccc1,-14.6,-5.6,-1.3,·,·,·,·,·,·
COc1ccc(Cl)cc1NC(=O)CSc1nnc(C2CC2)n1N,·,-9.7,2.8,0.704,-1.0,5.8,-3.4,-1.7,i
NC(=O)COC(=O)c1ccc2c(c1)S(=O)(=O)c1ccccc1C2=O,-7.8,2.7,0.7,0.701,-5.0,-13.1,-0.1,3.9,i
C[C@H](NC(=O)c1nc[nH]c1C(=O)NCc1ccccc1)C(=O)OC(C)(C)C,1.9,-2.8,-2.0,·,-14.2,-33.0,-6.9,4.8,i
O=[N+]([O-])c1ccc(Cl)c(S(=O)(=O)Nc2cccc(-c3ccc(N4CCOCC4)nn3)c2)c1,-11.1,5.9,-3.2,0.698,-7.6,-7.5,-0.4,3.3,i
O=S1(=O)CCOCCCN1Cc1ccccc1F,-12.8,6.8,-1.2,0.666,6.1,-6.1,0.0,2.4,i
COc1cc(-c2noc(C)c2/C=C/c2cccc([N+](=O)[O-])c2)cc(OC)c1OC,·,1.9,-0.1,·,0.8,6.6,-5.3,2.5,i
CN(C)c1cccc(CNC(=O)c2csc([C@@H]3C[C@H](O)[C@@H](CO)O3)n2)c1,·,·,-0.4,·,-3.3,2.8,-3.8,·,i
Cc1cccc(-c2nc(CS(=O)CC(=O)NCCc3ccccc3)c(C)o2)c1 (stereo unspecified),33.7,3.1,0.9,0.68,-3.9,-5.2,-0.9,2.0,i
COc1cc(Cl)c(C)cc1NC(=O)CN(C)Cc1cccc(OC)c1OC,-1.9,8.6,2.4,0.669,-21.7,-41.8,0.6,2.1,i
CCc1ccc(N2CN(Cc3ccco3)CNC2=S)cc1,29.7,-2.6,-1.0,0.678,·,·,·,3.0,i
CN(C)CC(=O)Nc1ccc2c(c1)[C@H]1C[C@H](CC(=O)NCc3ccc4c(c3)OCO4)O[C@H](CO)[C@H]1O2,·,·,-1.4,·,14.0&-3.0,8.6&9.6,1.2&1.0,·,i

# Compound activity as filed in PubChem BioAssay.

# Some of the compounds tested; count on the stated rates, not on these rows.
